Screening data: PubChem BioAssay, several laboratories
Rce1 inhib: blocks yeast Ras-converting enzyme; calls only; Q03530; yeast membranes, quenched prenylated peptide cleavage fluorescence; 0.27% of 290,000 active;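 active = fall in fluorescence gain of 50% or more versus controls, with final raw signal at or below 3038400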;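 also: plate controls were neutral control wells for no effect and wells lacking membranes for full effect; tested at 10 µM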
Target sequence (Q03530 whole entry, looked up): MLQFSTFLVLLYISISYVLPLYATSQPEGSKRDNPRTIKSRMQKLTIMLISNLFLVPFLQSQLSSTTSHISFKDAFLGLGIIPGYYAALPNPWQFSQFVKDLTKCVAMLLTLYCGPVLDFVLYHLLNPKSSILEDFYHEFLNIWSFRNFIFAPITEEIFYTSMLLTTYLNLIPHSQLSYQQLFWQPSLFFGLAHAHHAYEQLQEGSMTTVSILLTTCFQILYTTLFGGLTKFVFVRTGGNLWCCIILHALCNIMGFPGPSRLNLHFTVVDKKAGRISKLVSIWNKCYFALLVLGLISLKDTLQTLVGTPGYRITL
eIF4H FP inh: inhibitors of RNA binding by human eIF4H; 0.94% of 290,000 active; Q15056; inhibition, % at 35 µM; eIF4H fluorescence polarization binding assay;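 active = 50% or more with normal probe brightness, or confirmed in later tests; about a fifth of its hits are not listed in these tables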;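 also: calls also rest on retests at 20 µM and on dose response follow-up; 0% = protein and probe with vehicle and 100% = probe without protein; strong numbers were not always called active; many hits fall short of the cut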
MT1-MMP act inh: inhibitors of human MT1-MMP activation | HT1080 RFP-PRO-GFP cells, GFP/RFP ratio fluorescence, overnight; percent of plate control window, DMSO zero | 0.061% of 360,000 active | GFP/RFP ratio change, % at 20 µM;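 active = GFP/RFP ratio change of at least 30% with cell ATP level not reduced by more than half and red fluorescence within 50% of control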; also: strong numbers were not always called active
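Material: RFP-PRO-GFP reporter HT1080 cells. Dosing: single-point 20 µM compound, 1% DMSO. Controls: DMSO and RFP-L50D-GFP cell wells. Timing: cells overnight before dosing, compound overnight, 37 °C, 5% CO2. Measure: GFP/RFP fluorescence ratio.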
HIV Env fusion: inhibitors of HIV Env-mediated cell fusion; AID 651610; inhibition, % at 12.3 µM; HeLa-JRFL Env/CEM21 cell fusion, luciferase; 1.1% of 360,000 active;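 active = mean replicate inhibition score of at least 50 and every replicate individually at or above 50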;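 also: 0% = plate neutral controls and 100% = maraviroc near 300 nM; one replicate is shown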
UUG fidelity: modulators of start codon recognition fidelity in yeast; 0.13% of 350,000 active; S. cerevisiae UUG-firefly luciferase reporter, luminescence/redox ratio; activity score, % at 18.7 µM;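 active = replicate mean at a twofold rise or more, about +100% in these data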;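 also: firefly luciferase made from a UUG start codon reports start codon fidelity; reporter light over untreated wells divided by growth signal over untreated wells; some hits fall short of that in this replicate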
PABP polyA inh: blocks human PABP binding to poly(A) RNA | P11940 | fluorescence polarization | inhibition, % at 35 µM | 1% of 290,000 active | AID 2014;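 active = 50% or more with normal probe brightness, or confirmed in later tests; about a fifth of its hits are not listed in these tables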;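 also: calls also rest on retests at 20 µM and on dose response follow-up; controls were probe without protein and protein plus probe with vehicle; some compounds called inactive have numbers as strong as hits; many hits fall short of the cut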
Target sequence (P11940 whole entry, looked up): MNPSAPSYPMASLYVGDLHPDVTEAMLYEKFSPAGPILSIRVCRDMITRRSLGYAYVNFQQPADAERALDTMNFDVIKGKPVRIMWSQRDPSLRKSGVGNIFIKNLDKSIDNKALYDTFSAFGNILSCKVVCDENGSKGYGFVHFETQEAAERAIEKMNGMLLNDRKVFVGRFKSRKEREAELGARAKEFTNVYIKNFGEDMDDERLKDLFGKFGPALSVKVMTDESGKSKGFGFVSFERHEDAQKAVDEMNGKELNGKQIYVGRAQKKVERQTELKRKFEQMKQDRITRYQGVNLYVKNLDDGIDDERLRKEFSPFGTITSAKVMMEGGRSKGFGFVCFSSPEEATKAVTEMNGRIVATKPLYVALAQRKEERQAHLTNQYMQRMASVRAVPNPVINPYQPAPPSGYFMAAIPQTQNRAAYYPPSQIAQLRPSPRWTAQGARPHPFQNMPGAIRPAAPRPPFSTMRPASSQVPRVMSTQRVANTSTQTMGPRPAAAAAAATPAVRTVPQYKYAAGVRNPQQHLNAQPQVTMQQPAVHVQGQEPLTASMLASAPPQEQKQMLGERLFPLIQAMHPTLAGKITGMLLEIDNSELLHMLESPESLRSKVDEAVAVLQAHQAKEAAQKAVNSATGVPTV
CSC inhib: blocks cancer stem cells | AID 2717 | cancer stem cell-like cells viability, luminescence | 1.1% of 300,000 active | inhibition, % at 7.5 µM;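 active = mean at 75% or more and at least half the replicates too; tested in HMLE shEcad cells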;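 also: 0% = median of negative and 100% = median of positive control wells; the first replicate is given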
MT1-MMP act inh RFP: further read-out of MT1-MMP act inh, marked with its call; RFP signal change, %; measured here: RFP expression control read;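 0 = vehicle wells; hits needed this value within 50% of zero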
* marks the source's active call; other numbers are inactive results; i = inactive; / = not tested or not shown. An excerpt; the hit share may differ from the screen's.

SMILES | Rce1 inhib | eIF4H FP inh | MT1-MMP act inh | MT1-MMP act inh RFP | HIV Env fusion | UUG fidelity | PABP polyA inh | CSC inhib
COc1ccc(NC(=O)Cc2c(C)n(C(=O)c3ccc(Cl)cc3)c3ccc(OC)cc23)cc1 | i | -1.6 | -5.0 | -6.8 | 29.6 | / | -0.4 | 12.6
CCOC(=O)C1=C(C)N=c2s/c(=C/c3ccccc3)c(=O)n2C1c1ccc(OC)c(OC)c1 (stereo not drawn) | i | -1.9 | -7.5 | -7.7 | / | -18.6 | -9.8 | 16.1
CCN(c1ccc(OC)cc1)c1ncnc2nc[nH]c12 | i | -4.1 | -12.1 | -11.0 | 47.3 | -9.8 | -3.9 | -4.8
COc1cccc(NC(=O)C2CCC(CNS(=O)(=O)c3cccs3)CC2)c1 (stereo not drawn) | i | -5.8 | -0.5 | -0.1 | 1.2 | / | 13.6 | 4.7
CC(=O)Oc1ccc(Cn2c(C)c(C(=O)NCc3ccc(C#N)cc3)sc2=O)cc1 | / | / | 5.1 | -6.6 | 0.4 | -16.8 | / | /
CC(C)OCC1Cn2c(nc3c2c(=O)n(C)c(=O)n3C)O1 (stereo not drawn) | i | 2.3 | -3.1 | -3.2 | -0.8 | / | 2.7 | -9.4
Fc1cccc2sc(N3CCOCC3)nc12 | i | 2.4 | -1.0 | 2.4 | -145.6 | -8.6 | 4.5 | -5.6
Cc1ccc(NC(=O)CN2CCCCCC2)cc1Br | i | 7.1 | 8.4 | 7.4 | -9.2 | -15.2 | 2.8 | -5.5
COCCn1cnc2c1c(=O)n(Cc1ccc(C#N)cc1)c(=O)n2Cc1ccccc1 | / | -3.8 | -0.9 | 3.8 | 6.2 | 2.4 | 1.4 | -12.9
CCC(CCC(=O)Nc1cccc([N+](=O)[O-])c1)C(=O)O (stereo not drawn) | i | -9.3 | -0.3 | 2.5 | -24.6 | -9.1 | -1.4 | -0.1
CCN(CC(=O)Nc1ccc(NC(C)=O)cc1)C(=O)c1ccc(NC2CC2)c([N+](=O)[O-])c1 | / | / | 9.3 | 3.8 | / | 6.2 | / | 8.8
COc1ccc(OC)c(NC(=O)C2CCN(c3nc(C)cc(C)n3)CC2)c1 | i | -5.1 | 3.9 | -1.1 | -22.6 | -3.9 | -4.5 | 0.3
Nc1c([N+](=O)[O-])c(=O)sc2ccccc12 | i | -5.8 | 4.3 | 5.7 | -3.9 | / | -5.6 | -13.9
O=C(N/N=C/c1cccs1)c1[nH]ncc1Br | i | -4.7 | -0.5 | 4.3 | -51.1 | -15.3 | -3.5 | 13.9
O=C(CCC1CCCN(Cc2ccc3c(c2)OCCO3)C1)NCc1ccccc1F (stereo not drawn) | i | -2.3 | 0.2 | -2.1 | -10.1 | -25.4 | 8.3 | -10.3
CN(C)CCC=C1c2ccccc2C=Cc2ccccc21 | / | / | -5.8 | -2.9 | 17.5 | -4.9 | / | -8.0
O=C(O)c1cccc(CSc2ncn[nH]2)c1 | i | 2.1 | 7.8 | 4.1 | -2.7 | / | -1.8 | -14.5
CNC(=O)COC(=O)CCC(=O)c1ccc(Cl)cc1 | i | -4.8 | 2.0 | -0.5 | -4.4 | -13.9 | 3.9 | -7.1
Cc1ncc(CN2CCCC(C(=O)Nc3ccc(-n4ccnc4C)cc3)C2)cn1 (stereo not drawn) | i | -9.8 | 6.1 | 8.8 | -12.2 | -15.7 | -4.9 | -0.7
O=C(COc1ncnc2ccccc12)N1CCN(S(=O)(=O)c2ccccc2)CC1 | i | -6.3 | -1.0 | -1.2 | -45.8 | -7.2 | -6.2 | -4.8
Cc1cc(C(=O)Nc2ccccn2)cs1 | i | 7.2 | -5.7 | -0.8 | -32.5 | / | 3.3 | 8.1
COc1cccc(CN(C)C(=O)c2ccc(S(=O)(=O)Nc3ccccc3C)cc2)c1OC | / | / | -1.5 | -4.2 | 6.8 | 5.9 | / | /
COc1cc(CNc2ccc(N3CCN(C(C)=O)CC3)cc2)ccc1OCc1ccc(F)cc1 | i | -0.1 | / | / | 18.2 | / | -8.3 | 52.0
CCOC(=O)c1c(NC(=O)CSc2ncccn2)sc2c1CCN(Cc1ccccc1)C2 | / | 0.3 | -6.4 | -14.6 | 5.6 | / | 13.8 | /

Reprinted at random: 5 compounds from above, in no set order.
SMILES | Rce1 inhib | eIF4H FP inh | MT1-MMP act inh | MT1-MMP act inh RFP | HIV Env fusion | UUG fidelity | PABP polyA inh | CSC inhib
CN(C)CCC=C1c2ccccc2C=Cc2ccccc21 | / | / | -5.8 | -2.9 | 17.5 | -4.9 | / | -8.0
O=C(CCC1CCCN(Cc2ccc3c(c2)OCCO3)C1)NCc1ccccc1F (stereo not drawn) | i | -2.3 | 0.2 | -2.1 | -10.1 | -25.4 | 8.3 | -10.3
CCOC(=O)c1c(NC(=O)CSc2ncccn2)sc2c1CCN(Cc1ccccc1)C2 | / | 0.3 | -6.4 | -14.6 | 5.6 | / | 13.8 | /
O=C(O)c1cccc(CSc2ncn[nH]2)c1 | i | 2.1 | 7.8 | 4.1 | -2.7 | / | -1.8 | -14.5
O=C(N/N=C/c1cccs1)c1[nH]ncc1Br | i | -4.7 | -0.5 | 4.3 | -51.1 | -15.3 | -3.5 | 13.9

Other records
SMILES | Rce1 inhib | eIF4H FP inh | MT1-MMP act inh | MT1-MMP act inh RFP | HIV Env fusion | UUG fidelity | PABP polyA inh | CSC inhib
O=C(O)CCC(=O)NCc1ccc2[nH]c3c(c2c1)CCCC3 | i | 8.1 | -3.0 | 5.8 | -43.6 | -13.7 | 24.6 | -8.2
O=c1c2nnn(-c3cccc(F)c3)c2ncn1Cc1ccccn1 | i | -2.1 | -1.4 | 3.3 | -30.9 | / | 5.5 | 2.7
CN(C)/N=C/C=C1\CC/C(=C\c2ccc(Br)cc2)C1=O | i | 66.6* | -2.6 | 2.3 | -7.9 | -0.8 | 82.9* | 14.7
CC1=C(C(N)=O)C(c2ccccc2)n2nc(-c3cccs3)nc2N1 (stereo not drawn) | i | -4.7 | -0.1 | 2.6 | -3.2 | -16.5 | 7.5 | -2.4
Cc1oc(C(C)(C)C)cc1C(=O)N1CCN(c2ccc(C(F)(F)F)cn2)CC1 | i | -6.6 | -2.0 | -3.9 | 8.0 | / | -5.9 | 0.5
CCOc1ccc(CN2CCC(C(=O)Nc3cccc(-c4ccn[nH]4)c3)CC2)cc1Cl | i | -2.4 | 3.3 | -5.0 | -3.0 | -15.0 | -4.0 | /
O=C(N/N=C/c1cc([N+](=O)[O-])ccc1O)C12CC3CC(CC(C3)C1)C2 | i | 16.7 | -4.7 | -7.2 | 7.7 | / | 9.7 | 0.9
CS(=O)(=O)N1CCc2cc(C(=O)Nc3cccc([N+](=O)[O-])c3)ccc21 | i | -1.8 | 2.7 | -3.2 | -26.3 | -0.6 | -2.6 | 6.3
Nn1cnnc1N/N=C\c1ccc(-c2ccccc2[N+](=O)[O-])o1 | i | 3.5 | -2.6 | 3.2 | 17.5 | -2.6 | 8.4 | /
CSc1ccc(-c2c(C#N)c(N)nc3c2CCCC3)cc1 | i | -4.3 | -0.4 | 0.4 | -21.2 | -1.0 | -7.8 | -10.9
COc1ccc(-c2cccc(NS(=O)(=O)c3cc([N+](=O)[O-])c(C)c([N+](=O)[O-])c3)c2)nn1 | i | / | 2.2 | -2.5 | / | 8.3 | / | 23.2
CC(=O)C(C)Sc1nnc(-c2ccccc2F)n1C1CC1 (stereo not drawn) | i | 4.2 | -1.6 | 0.9 | 11.4 | -14.8 | 3.0 | -28.7
CC(C)N(Cc1ccccc1)C(=O)c1cnc2n(c1=O)CCS2 | i | -2.3 | 2.5 | 2.9 | -0.1 | -10.1 | -11.6 | -7.9
CCCCCN(C(=O)CN1CCC(Cc2ccccc2)CC1)c1c(N)n(CCCC)c(=O)[nH]c1=O | i | 7.9 | -21.2 | -0.3 | -11.6 | / | 18.3 | 2.4
Cc1ccc(C(=O)NCCOc2cccc3cccnc23)cc1Cl | / | 6.7 | 1.1 | 1.0 | 9.1 | / | 0.1 | 1.2
COc1ccc(Cl)cc1C(=O)OCC(=O)Nc1sccc1C(N)=O | / | / | -1.6 | -2.8 | 24.2 | -17.5 | / | -0.8
CCOC(=O)[C@H]1NN=C(C(=O)OC)[C@@H]1c1ccccc1 | i | 0.0 | -3.9 | -1.4 | 7.5 | / | -4.6 | -7.6
Cc1cc(C)n2nc(S(=O)(=O)Nc3c(Cl)cccc3Cl)nc2n1 | i | -4.4 | -1.7 | 0.7 | -11.8 | 35.4 | -1.2 | -2.0
O=C(Nc1ccccc1)Nc1ccccc1C(=O)NCCCN1CCOCC1 | i | 6.5 | -6.0 | -1.3 | 6.5 | / | 7.1 | -15.9
CCC1SC(CC)C(=O)N(CC(=O)NCc2ccc(F)cc2)C1=O (stereo not drawn) | i | 5.0 | 0.3 | 0.8 | -8.0 | / | -51.7 | 11.0
CSCCC(NS(=O)(=O)c1ccc(Cl)c(Cl)c1)C(=O)O (stereo not drawn) | i | 2.4 | -0.1 | -0.7 | -7.5 | / | 3.0 | -2.3
CCOC(=O)c1ccc(N2C(=O)C(C)=C(C)C2=O)cc1 | i | -0.7 | -2.9 | 2.9 | / | / | 10.2 | 3.2
COc1cc(C(O)c2nc(-c3cccc(C#N)c3)cs2)ccc1F (stereo not drawn) | / | / | 3.2 | -3.7 | -23.8 | -13.3 | / | /
CCCCNS(=O)(=O)c1ccc2nc(SCC(=O)Nc3ccccc3)[nH]c2c1 | i | 3.3 | 2.7 | -5.2 | -53.0 | / | 14.8 | 16.0
O=Cc1cccn1Cc1ccccc1[N+](=O)[O-] | i | -8.1 | 0.5 | 2.5 | 16.5 | -10.2 | 2.5 | -12.5
O=C1c2ccccc2C(=O)N1Cc1ccco1 | i | -15.9 | 0.8 | 1.4 | / | -12.7 | 1.9 | -19.5
CS(=O)(=O)N(CC(=O)N1CCCCC1)c1cccc(F)c1 | i | -3.9 | 0.9 | 3.4 | 14.2 | / | 7.6 | -3.5
COc1cc(C=O)c(Cl)cc1OCC(N)=O | i | -1.3 | -1.2 | 4.0 | 0.1 | / | 3.1 | /
CC(=O)c1cc2c(cc1NC(=O)c1c(-c3ccccc3)noc1C)OCO2 | i | -8.7 | 1.6 | 3.4 | / | -15.0 | -6.0 | 1.4
Cc1ccc(NS(=O)(=O)c2c(C)[nH]c(C)c2C(=O)N2CCCCC2)cc1C | i | 1.4 | 3.6 | 1.0 | -1.8 | 0.9 | 3.0 | -23.3
CC1CN(S(=O)(=O)c2ccc(C(=O)Nc3ccc(S(=O)(=O)Nc4ncccn4)cc3)cc2)CC(C)O1 (stereo not drawn) | i | 2.9 | -1.1 | 1.7 | -14.7 | / | 5.8 | /
COc1ccc(CCNC(=O)COC(=O)/C=C/c2ccc3c(c2)OCO3)cc1 | / | / | 0.2 | 0.2 | -4.5 | -5.8 | / | 0.8
CCOc1ccc(N2C(=O)Nc3ccccc3C2(O)C(=O)NCc2ccc(F)cc2)cc1 (stereo not drawn) | i | -3.7 | -3.7 | -2.9 | -9.6 | -8.6 | 7.0 | -7.8
CCCNC(=O)CN1C(=O)COc2ccc(S(=O)(=O)N3CCCCCC3)cc21 | i | -2.0 | 4.6 | 4.1 | 2.9 | -19.6 | 4.2 | /
COC(=O)c1c(NC(C)=O)sc(C(=O)N2CCOCC2)c1C | i | -1.3 | -1.0 | -0.5 | -8.3 | / | -3.5 | -6.3
CCOC(=O)C1=C(COC(=O)c2ccc(Br)o2)NC(=O)NC1C (stereo not drawn) | i | -0.4 | -0.5 | 4.3 | -10.4 | -4.0 | 1.7 | -12.1
COCCn1c(=NC(=O)c2cc(-c3cccs3)nc3ccccc23)sc2cc(S(N)(=O)=O)ccc21 | i | -0.2 | 7.0 | -14.3 | -143.1 | / | -4.9 | 70.6
COc1ccc([C@@H]2CC(=O)[C@@H]3CN(S(=O)(=O)c4ccc(C)cc4)[C@H](c4cccc(Cl)c4)C[C@@H]3N2S(=O)(=O)c2ccccc2)cc1 | / | / | -2.0 | -2.9 | -72.0 | -7.0 | / | /
